Bioassay records: PubChem, National Center for Advancing Translational Sciences (NCATS)
VACV mCherry inh – inhibitors of vaccinia virus infection (mCherry reporter signal); AID 720579; Potency, µM (highest dose often 36.5 µM), inactives show at the top dose activity change, negative = inhibition, hits mostly inhibitors; actives 0.63% (n = 310,000); Vaccinia virus mCherry reporter infection, fluorescence; about a quarter of the inactives have no number; active = well fitted inhibition curve with a large enough effect; inconclusive = small, poorly fitted or top-dose-only effect; inactive = no such curve, though single readings can be large or run the other way; tested in A549 cells; also: nearly all actives have a fitted effect of over 35% in size; inactives centre near -10
VACV Venus inh – inhibitors of vaccinia virus (Venus reporter); Vaccinia virus Venus reporter expression, fluorescence; Potency, µM (titrated, usually from 36.5 µM), for inactives: top-dose activity change, negative = inhibition, usual class: inhibitors; actives 0.46% (n = 330,000); active means well fitted inhibition curve with a large enough effect; inconclusive means small, poorly fitted or top-dose-only effect; inactive means no such curve, though single readings can be large or run the other way; tested in A549 cells; also: nearly all actives have a fitted effect of over 30% in size; inactives centre near -10
The depositor's hits bear a star; i = inactive; u = inconclusive; x = no result given; [ ] = remark or other dose. % is scaled to controls: 0 for no effect and ±100 for the full control effect; potency is read from the fitted curve at half-maximal effect.

Order of results – VACV mCherry inh | VACV Venus inh
Cc1ccc(NC(=O)C(=O)NCCc2c[nH]c3ccccc23)cc1C
→ -13% | -13%
O=C(CN1C(=O)NC2(CCOc3ccccc32)C1=O)c1ccc[nH]1 (stereo not given)
→ -5% | -6%
O=C(COC(=O)c1cn(-c2ccccc2)nc1-c1ccc(F)cc1)Nc1ncc(Cl)cc1Cl
→ -13% | -4%
O=C(OCc1cc(=O)n2nc(C3CCCCC3)sc2n1)c1ccccc1Cl
→ 10% | 13%
COc1cccc(CN(C)C(=O)C2CCN(S(=O)(=O)c3ccc(C)cc3)CC2)c1OC
→ i | -10%
CCOC(=O)N1CCN(C(=O)CS(=O)(=O)c2cn(Cc3ccc(Cl)cc3)c3ccccc23)CC1
→ -23% | -6%
CCCC(c1nnnn1CCc1ccccc1)N1CCC(C(N)=O)CC1 (stereo not given)
→ -8% | -4%
O=C(COC(=O)CN1C(=O)C2CCCCC2C1=O)Nc1cc(F)ccc1F (stereo not given)
→ -12% | -7%
COc1ccc(CCNC(=O)NS(=O)(=O)c2ccc(C)cc2)cc1OC
→ -7% | -3%
CN(C1CCCCC1)S(=O)(=O)c1ccc(S(=O)(=O)N2CCN(C(=O)c3ccccc3F)CC2)cc1
→ -21% | -3%
Cc1ccc2cc(CNC[C@H]3O[C@@H](n4cc(C)c(=O)[nH]c4=O)C[C@@H]3O)c(N3CCOCC3)nc2c1
→ i | 2%
O=C(c1ccco1)N1N=C(c2ccc(Cl)cc2)CC1(O)C(F)(F)F (stereo not given)
→ -4% | -17%
O=C(c1cc(COc2ccc(F)cc2Cl)on1)N1CCSCC1
→ i | -6%
CC(=O)NC(CC(=O)OCC(=O)N1CCN(S(=O)(=O)c2ccc(Cl)cc2)CC1)c1ccccc1 (stereo not given)
→ -20% | -6%
CCN(CC(=O)NCc1ccncc1)S(=O)(=O)c1ccc(OC)cc1
→ i | -1%
Cc1cccc(NC(=O)C2CCCN2S(=O)(=O)c2cccc3nsnc23)c1C (stereo not given)
→ -16% | -3%
CCOC(=O)Cc1nnc(Nc2cccc(O)c2)c2ccccc12
→ x | -12%
CC1CCN(CCCNC(=O)c2cn(C)c3ccc(S(=O)(=O)N(C)C4CCCCC4)cc3c2=O)CC1
→ -16% | -5%
Cn1c(SCC(=O)N2CCOCC2)nc2cccnc21
→ -12% | -15%
C=Cc1ccc(CN2C(=O)N(c3cccc(Cl)c3)S(=O)(=O)c3ccccc32)cc1
→ -9% | -17%
Cc1cc(C)n(-c2nc3ccccc3c(=O)n2OCC(=O)Nc2c(C)cccc2C)n1
→ x | -16%
COCCNC(=O)CSc1ccccc1C(=O)NCC1CCCCC1
→ i | -13%
CCCCCCCCCC(=O)Nn1cnc2ccccc2c1=O
→ i | -4%
O=C1NC(=O)N(Cc2ccccc2)C(=O)/C1=C\N1CCCc2ccccc21
→ -13% | 40%[activator]
COc1ccccc1N1CCN(C(=O)Cn2nnc(-c3cccs3)n2)CC1
→ i | -6%
CCCS(=O)(=O)NC(=O)C1(C)CCCN(C(=O)COCc2ccccc2)C1 (stereo not given)
→ i | 6%
CC1=NN(C(=O)Cn2nc([N+](=O)[O-])cc2C)C(O)(C(F)(F)F)C1 (stereo not given)
→ -5% | -1%
O=C(Cc1ccccc1)N1CCN(C2CCCCCC2)CC1
→ i | -1%
COc1ccc(/C=C/c2nnc(NC(=O)C(C)C)s2)cc1
→ -3%[7.34 µM] | -3%[7.34 µM]
COc1ccc(C(=O)Nc2cccc(N(C)S(C)(=O)=O)c2)cc1OC
→ i | -19%
Cc1ccc(OCC(=O)OCc2cc(=O)n3nc(C4CCCCC4)sc3n2)cc1C
→ -10% | 3%
Cc1ccc(C)c(N2CCN(Cc3csc(C)c3C)CC2)c1
→ -7% | -6%
O=C(c1ccc(-n2cncn2)c([N+](=O)[O-])c1)N1CCN(S(=O)(=O)c2ccc(Br)cc2)CC1
→ i | -20%
CCOC(=O)C(CC)/C(C)=N\NC(=O)c1ccccc1O (stereo not given)
→ u | u
Cc1cccc2nc(CSc3ccccc3N)cn12
→ -15%[1.46 µM] | -18%
COc1ccc(C(C(=O)Nc2c(C)cccc2C)N2CCN(C)CC2)cc1 (stereo not given)
→ i | -11%
CCOc1cc(/C=N/N=C2/NC(=O)C(CC(=O)O)S2)ccc1OCc1ccc(Cl)cc1 (stereo not given)
→ -2% | -5%
COCCSc1nnc(NS(=O)(=O)c2ccccc2)s1
→ -10% | 2%
Nc1c(C(=O)Nc2ccccc2Cl)nnn1-c1ccc2c(c1)OCCO2
→ i | -4%
CC12CCC(c3c(C(=O)O)nn(-c4ccc(F)cc4)c31)C2(C)C (stereo not given)
→ -8% | -6%
CC1(C)Cc2c(cnn2-c2cccc(F)c2)C(NC(=O)c2ccc[n+]([O-])c2)C1 (stereo not given)
→ -7% | -6%
COc1cccc(NC(=O)COc2coc(CN3CCc4ccccc4C3)cc2=O)c1
→ -11% | -5%
Cc1ccc(NC(=O)C2CCN(C(=O)c3ccco3)CC2)cc1C
→ 3% | -10%
Nc1ccc2c(c1)Cc1cc([N+](=O)[O-])ccc1-2
→ -16% | 33%[activator]
CCOc1ccc(NC(=O)c2nc(SCC)ncc2Cl)cc1
→ -12% | -16%
CCOc1ccc(N2CC(C(=O)N3CCN(C(=O)c4ccco4)CC3)CC2=O)cc1 (stereo not given)
→ -18% | -4%
COC(=O)CC1SC(=O)NC1=Nc1cccc(C)c1 (stereo not given)
→ x | -14%
COc1cc(/C=C/C(=O)O)cc(S(=O)(=O)Nc2ccccc2C(=O)NCCc2ccccc2)c1OC
→ -16% | 3%
CC(C)(C)n1nnnc1C(c1ccc(C(F)(F)F)cc1)N(Cc1ccc(F)cc1)Cc1ccco1 (stereo not given)
→ x | u
CC1CCCCC1NC(=O)CCCCCn1c(=S)[nH]c2ccccc2c1=O (stereo not given)
→ i | -21%

Other compounds.
Order of results – VACV mCherry inh | VACV Venus inh
O=C(Nc1ccn(CCCN2CCN(c3ccccn3)CC2)c(=O)n1)OCc1ccccc1
→ -21% | 0%
O=C(O)CC(c1cccc([N+](=O)[O-])c1)N1Cc2ccccc2C1=O (stereo not given)
→ i | -2%
CCOc1ccccc1NC(=O)NCCC1=CCCCC1
→ i | -21%
COC(=O)c1cccc(Nc2ncnc3ccc(C)cc23)c1
→ -24% | -17%
CC(C)CN(C(=O)CSc1nnc(-c2cccs2)n1C1CC1)C1CCS(=O)(=O)C1 (stereo not given)
→ -3% | -13%
Cc1nc2ccccc2c2oc(C(=O)NCCN3CCCCC3C)cc12 (stereo not given)
→ 20% | -3%
O=C(C1CCN(C2CCN(Cc3ccc4cc(F)ccc4n3)CC2)CC1)N1CCCC1
→ -9% | -16%
COc1nc(=O)n(C2CCCO2)cc1C (stereo not given)
→ -18% | -25%
COc1ccc(C2=NC(c3ccncc3)=Nc3ccc(OC)cc3N2)cc1
→ -17% | -15%
COCCC(=O)N1CCC(Oc2ccc(C(=O)N3C[C@@H](C)O[C@@H](C)C3)cc2)CC1
→ -8% | -6%
CCSc1nnc(NC(=O)CSc2nnc(CNC(=O)c3ccc(OC)c(OC)c3)o2)s1
→ i | -9%
Cn1cc(S(=O)(=O)NC2CCCC2)c(=O)n(C)c1=O
→ -11% | -5%
O=c1c2ccccc2n(Cc2ccccc2F)c(=O)n1-c1cccc(F)c1
→ -13% | -10%
Cc1cccc(-c2ccc3c(c2)C2CC3CCN2Cc2ccc3c(c2)OCO3)c1 (stereo not given)
→ -26% | 4%
Cc1ccc2ccc(S(=O)(=O)NCc3ccccn3)cc2c1
→ -13% | 2%
COc1ccc(NC(=O)N(C)C[C@H]2OCCCC[C@@H](C)Oc3ccc(N(C)C)cc3C(=O)N([C@H](C)CO)C[C@@H]2C)cc1
→ -6% | -6%
Cc1cc(C)nc(NS(=O)(=O)c2ccc(NC(=O)c3ccccc3Br)cc2)n1
→ -4% | -5%
Cc1cccc2cc(C#N)c(SCc3nnc(-c4ccccc4[N+](=O)[O-])o3)nc12
→ -16% | -11%
CC(C)COC(=O)N(C)C[C@H]1OCc2cnnn2CCCC(=O)N([C@H](C)CO)C[C@@H]1C
→ -14% | -14%
Cc1nc(C)n(CC(C)C(=O)N2CCN(S(=O)(=O)c3ccc(Cl)cc3)CC2)n1 (stereo not given)
→ i | -17%
COc1ccc2c(CNCc3ccco3)c(C(=O)O)n(Cc3cccc(F)c3)c2c1
→ -2% | 0%
CC(C)CCNC(=O)c1c[nH]c2ccc(S(=O)(=O)Nc3cccc(C(F)(F)F)c3)cc2c1=O
→ -1% | -11%
CO/N=C/c1ccc(Oc2ccc(C)cc2)c([N+](=O)[O-])c1
→ -5% | -11%
Cc1ccc2[nH]c(=O)c(CNC(C)C)cc2c1
→ x | 1%
O=C1[C@@H]2Cc3c([nH]c4ccccc34)C(c3cccc(Br)c3)N2C(=O)CN1C1CCN(Cc2ccccc2)CC1 (stereo not given in full)
→ u | u
CC(OC(=O)CCc1ccccc1)C(=O)Nc1ccc(Cl)cn1 (stereo not given)
→ -15% | -7%
O=C(COc1c(Cl)cccc1Cl)Nc1ccccc1N1CCCC1
→ i | -4%
CCCCCC(=O)N1c2ccccc2C(C)(c2ccccc2)CC1(C)C (stereo not given)
→ -8% | 1%
Cc1nnc(SCC(=O)c2c(N)n(C)c(=O)n(C)c2=O)n1Cc1ccccc1
→ -6% | 0%
Cc1cccc(C)c1NC(=O)c1cccc2c1C(=O)N(C1CCCCC1)C2
→ u | -18%
O=[N+]([O-])c1cc(S(=O)(=O)NCCN2CCOCC2)ccc1Cl
→ -24% | 8%
COc1ccc(OC)c(S(=O)(=O)NC(C)c2cnn(-c3ccccn3)c2C)c1 (stereo not given)
→ i | -12%
CCC(C)NC(=O)CSc1nc2cc(S(=O)(=O)N3CCOCC3)ccc2n1CC (stereo not given)
→ -16% | -15%
O=C1NC(c2cccnc2)C(C(=O)c2cccs2)C(O)(C(F)(F)F)N1 (stereo not given)
→ -1% | 1%
CC(=O)NCC(=O)NC(C(=O)Nc1ccc2c(c1)OCCO2)c1ccc(C)cc1 (stereo not given)
→ i | -2%
C=CCN1C(=O)c2ccc(C(=O)N3CCN(c4ccccc4OC)CC3)cc2C1=O
→ i | -14%
Cc1ccccc1S(=O)(=O)N1C[C@H]2[C@H]3C(=O)N(c4ccccc4)C(=O)[C@H]3CC(=O)[C@H]2[C@@H]1c1ccc(Cl)cc1
→ 24% | 5%
O=C(CSCc1ccc(Cl)cc1)Nc1ccccc1C(=O)N1CCOCC1
→ -13%[1.46 µM] | -8%
Cc1nnc(C)n1/N=C/c1ccc(O)cc1
→ x | -2%
COc1ccc(-n2c(CCc3ccccc3)nnc2SCC(=O)c2ccccc2)cc1
→ -22% | -19%

Part of the list above, as tab-separated lines.
molecule	VACV mCherry inh	VACV Venus inh
O=C1NC(c2cccnc2)C(C(=O)c2cccs2)C(O)(C(F)(F)F)N1 (stereo not given)	-1%	1%
CC(=O)NCC(=O)NC(C(=O)Nc1ccc2c(c1)OCCO2)c1ccc(C)cc1 (stereo not given)	i	-2%
COc1ccc(OC)c(S(=O)(=O)NC(C)c2cnn(-c3ccccn3)c2C)c1 (stereo not given)	i	-12%
Cc1ccccc1S(=O)(=O)N1C[C@H]2[C@H]3C(=O)N(c4ccccc4)C(=O)[C@H]3CC(=O)[C@H]2[C@@H]1c1ccc(Cl)cc1	24%	5%
CCC(C)NC(=O)CSc1nc2cc(S(=O)(=O)N3CCOCC3)ccc2n1CC (stereo not given)	-16%	-15%
O=[N+]([O-])c1cc(S(=O)(=O)NCCN2CCOCC2)ccc1Cl	-24%	8%

(list continues)
Order of results – VACV mCherry inh | VACV Venus inh
Cc1ccc2ccccc2c1NC(=O)CNCc1ccccc1
→ 0% | -1%
CCN1C[C@@H]2[C@@H]3C(=O)N(Cc4ccccc4)C(=O)[C@@H]3[C@](Cc3ccccc3)(C(=O)OC)N2C1=NCc1ccccc1
→ -29% | -4%
O=P(Nc1ccccc1)(Nc1ccccc1)Oc1cccc(Cl)c1
→ -5% | -28%
C[C@@H]1CN([C@H](C)CO)C(=O)CCCn2cc(nn2)CO[C@H]1CN(C)C(=O)Nc1ccc2c(c1)OCO2
→ -9% | -19%
CCOc1cc2c(cc1OCC)C(c1ccccc1)N(c1ccccc1)C(=O)C2 (stereo not given)
→ -11% | 2%
CC1=C(C(=O)NCCc2ccc(C)cc2)C2(CCC(C)CC2)OC1=O (stereo not given)
→ -14% | 0%
Cc1csc(SCC(=O)NC(=O)NC2CCCC2)n1
→ -4% | -11%
CCc1nc2ccccc2c(=O)n1/N=C/c1ccc(OC)cc1
→ -13% | -2%
N=c1sccn1CC(=O)NC(=O)NC1CCCC1
→ -17% | -12%
CCOCCCNC(=O)c1c[nH]c2ccc(OCC)cc2c1=O
→ -8% | -4%
Cc1c(C(=O)N(C)C)sc2c1c(=O)n(-c1ccccc1C(F)(F)F)c(=O)n2Cc1cccc(F)c1
→ -1% | 18%
COCCCNC(=O)CCN1C(=O)COc2ccccc21
→ -14% | -7%
Cc1cc(C[n+]2cc(Br)ccc2N)c2ncccc2c1
→ -8% | 6%
CC1(C)CC(=O)C2=C(C1)Oc1ncn(CCO)c(=N)c1C2c1ccccc1 (stereo not given)
→ -8% | 1%
COc1ccc(/C(O)=C2/C(=O)C(=O)N(CCN3CCNCC3)C2c2cccc([N+](=O)[O-])c2)cc1 (stereo not given)
→ -7% | -9%
CC[C@H](C)[C@H]1CNC(=S)N1CC1CCN(CCCC2CCCC2)CC1
→ -4% | -14%
Cc1ccc(-c2nnc(CCC(=O)NCC3C4CC5CC(C4)CC3C5)o2)s1 (stereo not given)
→ i | -15%
